Screening results from PubChem BioAssay.
GALR2 agonist = activates the human galanin receptor 2; O43603; GALR2-expressing cells, agonist activation read-out; activation, %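 (tested at 5 µM)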; 140,000 tested, 0.48% active; AID 803;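 active = above mean plus 3 SD of all compounds, about 5% in these data, not always enough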;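 note: 0% = vehicle buffer wells and 100% = reference agonist at full effect; tested in CHO reporter cells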
Target sequence (O43603 whole entry, looked up): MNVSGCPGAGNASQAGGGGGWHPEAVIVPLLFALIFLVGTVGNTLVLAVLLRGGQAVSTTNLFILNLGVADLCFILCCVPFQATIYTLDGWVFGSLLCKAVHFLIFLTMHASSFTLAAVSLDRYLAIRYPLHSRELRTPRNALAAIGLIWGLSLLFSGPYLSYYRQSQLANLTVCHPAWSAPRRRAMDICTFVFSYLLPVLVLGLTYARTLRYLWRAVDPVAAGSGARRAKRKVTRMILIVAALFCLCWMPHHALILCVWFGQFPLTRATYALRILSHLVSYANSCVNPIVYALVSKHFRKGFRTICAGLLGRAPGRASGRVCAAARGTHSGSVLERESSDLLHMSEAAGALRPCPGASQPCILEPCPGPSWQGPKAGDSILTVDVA
INS promoter inh = TRM-6 insulin promoter activity inhibition; TRM-6 cells (human fetal islet line), insulin promoter-eGFP reporter, imaging; reporter expression induced with tamoxifen; inhibition, % at 2 µM; 130,000 tested, 0.9% active;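 active = inhibition above the mean plus 3 SD, with well images judged a real hit on visual review, cut at about 60% in these data, passing the limit was not always enough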
PKD1 kinase inh = inhibitors of human PKD1 kinase | 200,000 tested, 0.056% active | Q15139 | PKD1 kinase fluorescence polarization assay | inhibition, %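 (about 10 µM by stock and volumes)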;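 active = inhibition of 50% or more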;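 note: controls were vehicle for no effect and a reference inhibitor for full effect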
RGS16-Gao = RGS16-Galphao interaction regulator (human) | AID 1441 | bead-based flow cytometry RGS16-Galphao binding, fluorescence; actives lie on both sides | O15492+P09471 | 220,000 tested, 0.38% active | binding response (% of control), % at 10 µM;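 active = below 25% or above 175%, edge rows of some plates excepted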;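 note: Galphao activated by GDP with aluminum fluoride before binding; 100% = wells without compound and 0% = beads without RGS; some results beyond the cut were filed as inactive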
Target sequence (O15492 whole entry, looked up): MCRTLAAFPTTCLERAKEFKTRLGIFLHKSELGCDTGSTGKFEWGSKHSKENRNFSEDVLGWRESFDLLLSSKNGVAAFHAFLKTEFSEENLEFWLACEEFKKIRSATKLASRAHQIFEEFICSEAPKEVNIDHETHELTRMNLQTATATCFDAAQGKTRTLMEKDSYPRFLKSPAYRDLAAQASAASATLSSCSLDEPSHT
Target sequence (P09471 whole entry, looked up): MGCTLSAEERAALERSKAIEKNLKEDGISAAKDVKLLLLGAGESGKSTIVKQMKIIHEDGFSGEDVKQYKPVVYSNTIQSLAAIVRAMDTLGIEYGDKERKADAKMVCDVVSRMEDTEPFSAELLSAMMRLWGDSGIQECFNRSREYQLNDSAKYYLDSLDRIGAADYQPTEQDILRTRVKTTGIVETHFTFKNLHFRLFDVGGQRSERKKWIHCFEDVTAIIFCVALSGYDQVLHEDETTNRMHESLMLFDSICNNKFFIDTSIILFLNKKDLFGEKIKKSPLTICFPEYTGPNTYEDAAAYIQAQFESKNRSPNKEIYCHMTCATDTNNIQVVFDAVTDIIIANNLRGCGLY
HSV replic up = increases HSV replication in cells; HSV replication augmentation in cells, fold increase; maximum fold increase; 220,000 tested, 0.005% active; AID 1956;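 active = peak rise of 1.5-fold or more in the series; tested in PC3 cells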;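 note: first round at 10 µM; read as green reporter fluorescence; hits show the peak of a series up to 25 µM; 1 = signal of infected wells without compound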
INS promoter inh cell count = also measured in INS promoter inh; calls as there; normalized cell count, %; measured here: cell count, toxicity; reference of the scale not given here;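 cells exposed to compound for 48 h; stained nuclei by imaging scaled within each plate; lower means fewer cells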
HSV replic up primary fold = further read-out of HSV replic up, marked with its call; fold increase; compound at 10 µM; measured here: primary screen fold increase 10 uM; tested in PC3 cells;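 GFP signal in the first replicate; 1 = infected wells without compound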
Starred values were filed as active, the others as inactive; i = inactive; x = not tested or not shown. Compounds were not picked by outcome; about 1.2% have a hit in one of these screens.

SMILES	GALR2 agonist	INS promoter inh	INS promoter inh cell count	PKD1 kinase inh	RGS16-Gao	HSV replic up	HSV replic up primary fold
O=C(O)CCc1ccc(-c2cccs2)n1CC(=O)Nc1ccccc1C(F)(F)F	x	0	109	-5	104	i	0.95
CC(C)NC(=O)CSc1nccc(-c2cccs2)n1	x	x	x	x	100	i	0.84
CN(C)S(=O)(=O)Oc1ccsc1C(=O)Nc1ccc(Br)cc1	x	-27	145	-3	105	i	0.98
CCc1ccc(NC(=O)C2CCN(S(C)(=O)=O)CC2)cc1	-2.8	0	152	-11	102	i	0.9
O=C(NCC(=O)N(c1cccnc1)C(C(=O)NC1CCCC1)c1ccco1)c1cccs1 (stereo not drawn)	-0.4	-87	110	3	101	x	x
COc1cc(-c2nnc(Sc3ccc(C(F)(F)F)cc3[N+](=O)[O-])o2)cc(OC)c1OC	-2.2	-3	43	2	103	i	0.99
NC(=S)N/N=C1\CC(n2nnnc2-c2ccccc2Cl)C2COC1O2 (stereo not drawn)	x	12	95	2	99	i	0.97
CCOC(=O)CN1NC2(CCCCCCC2)NC1=S	x	x	x	x	90	i	1
CCN1C(=O)N(C)C(N(O)C(=O)NC)C1(C)C (stereo not drawn)	-2.8	9	56	5	117	i	0.96
COc1ccc(OC)c(Nc2nc(N)c([N+](=O)[O-])c(NCc3ccccc3)n2)c1	x	x	x	x	93	i	0.82
Cc1cc(N2CCN(c3ccccc3)CC2)n2nnnc2n1	-0.3	41	128	2	111	x	x
Clc1ccc(C2=Nc3cc(Cl)ccc3OC2)cc1	x	-355	24	-1	99	i	0.82
C=C(C)CN(CC)C(=O)CC1C(=O)NCCN1C (stereo not drawn)	x	-70	113	-9	85	i	0.93
CCCCCCN(C(=O)CCCCCN1C(=O)NC(c2ccc(C3CCCCC3)cc2)C(C(=O)OCc2ccccc2)=C1C)C(C(=O)NCCCC)c1ccc(OCC(=O)OC)c(C(=O)OC)c1 (stereo not drawn)	x	x	x	x	103	i	0.93
COc1ccc(/C=N/NC(=O)c2sc(C)nc2C)cc1	x	x	x	-5	101	i	0.86
O=C(/C=C/c1cccc([N+](=O)[O-])c1)NCc1cccnc1	-0.5	-17	88	-10	97	i	1
Cc1cc(C(=O)O)ccc1N/C=C1\CCCC(C)C1=O (stereo not drawn)	-1.9	34	90	-1	116	i	0.97
O=C(C1CCCN(S(=O)(=O)c2cccs2)C1)N1CCN(C2CCCCC2)CC1 (stereo not drawn)	-3.1	x	x	-2	120	i	0.98
CCCCCc1c(O)nc(SCCN2CCOCC2)[nH]c1=O	x	x	x	-2	106	i	0.91
COC(=O)c1nn(C23CC4CC(CC(C4)C2)C3)c2c1C(=O)N(c1ccc(Br)cc1)C2=O	-0.7	0	73	0	107	i	0.88
COc1cc2c(cc1OC)C(c1ccc(-c3ccc(Cl)c(Cl)c3)o1)=NCC2	1.6	-3	43	3	103	i	0.79
COc1ccc(S(=O)(=O)N(C)C)cc1NC(=O)Cc1cccs1	x	30	113	1	107	i	0.88
COCCN1Cc2cccc(C(=O)NCC3CCN(CC(C)C)C3)c2C1=O (stereo not drawn)	x	33	90	-2	105	i	0.94
Cc1ccc(-n2[nH]c(C)c(/C=N/Nc3ccc([N+](=O)[O-])cc3[N+](=O)[O-])c2=O)cc1	-0.1	x	x	10	99	i	1.2
O=S(=O)(Nc1cccc(-c2nc3cccnc3s2)c1)c1ccc2c(c1)CCCC2	-0.4	22	116	1	101	i	0.99

Full records as entered above:
`CCN1C(=O)N(C)C(N(O)C(=O)NC)C1(C)C` (stereo not drawn) across the screens: GALR2 agonist = -2.8; INS promoter inh = 9; INS promoter inh cell count = 56; PKD1 kinase inh = 5; RGS16-Gao = 117; HSV replic up = i; HSV replic up primary fold = 0.96
`CN(C)S(=O)(=O)Oc1ccsc1C(=O)Nc1ccc(Br)cc1` across the screens: GALR2 agonist = x; INS promoter inh = -27; INS promoter inh cell count = 145; PKD1 kinase inh = -3; RGS16-Gao = 105; HSV replic up = i; HSV replic up primary fold = 0.98

(cont.)
SMILES	GALR2 agonist	INS promoter inh	INS promoter inh cell count	PKD1 kinase inh	RGS16-Gao	HSV replic up	HSV replic up primary fold
Cc1c(C(=O)O)nn(-c2ccccc2)c(=O)c1C#N	-4.9	x	x	3	100	i	1.1
CSCC[C@H](NC(=O)OC(C)(C)C)c1nnc(SCC(=O)Nc2c(C)cccc2C)o1	-2.4	-25	87	-6	103	i	0.85
O=S(=O)(CC(CN1CCCCC1)N1CCCCC1)c1ccc2ccccc2c1 (stereo not drawn)	x	x	x	4	88	i	0.56
O=C(CSc1nc2ccccc2c(=O)n1-c1ccccc1)N/N=C/C=C/c1ccccc1[N+](=O)[O-]	x	x	x	-5	99	i	0.89
COC(=O)Cn1c(O)c(N=NC(=O)OC)c2ccccc21	x	x	x	x	104	i	1.1
CCOc1ccc(Cl)cc1S(=O)(=O)n1cnc2cc(C)c(C)cc21	-2.2	8	100	1	104	i	0.9
CC(C)CCNC(=O)COc1cccc2c1OC(C)(C)C2	x	x	x	-2	97	i	0.92
COc1cc2c(cc1OC)C(Nn1cnnc1)=NC1(CCCC1)C2	x	x	x	x	102	i	0.94
O=C(CSc1nc2ccccc2c(=O)n1-c1ccccc1)N1CCN(CCO)CC1	-0.2	36	213	-11	106	i	0.83
COc1ccc(Cn2nnnc2C(c2cc3cccc(C)c3[nH]c2=O)N2CCN(C)CC2)cc1 (stereo not drawn)	x	33	108	-11	97	i	1
O=C(OCc1nnc(-c2ccccc2)o1)c1cc2ccccc2cc1O	x	x	x	-3	87	i	0.93
Cc1ccc(C(=O)N2CCCC(C(=O)c3cc(F)ccc3F)C2)s1 (stereo not drawn)	x	x	x	5	100	i	0.94
CC(C)(C)NC(=O)C1N(c2cccnc2)C(=O)C2C(C(=O)Nc3ccccc3F)C3(C)C=CC21O3 (stereo not drawn)	-0.6	x	x	6	104	i	0.94
CN1C(=O)/C(=C2\SC(=S)N(C(CCC(=O)O)C(=O)O)C2=O)c2ccccc21 (stereo not drawn)	-1.9	x	x	-16	275	i	1.1
CCN(CC)CCNc1nc(-c2ccccc2)c2c(c1C#N)CC(C)(C)OC2	-1.4	-27	64	-8	109	i	0.88
CSc1nnc2ccc(-c3cccs3)nn12	x	-22	73	-7	102	i	0.89
O=C(O)CN1CCN(Cc2ccc(Cl)cc2)C1=O	-1.1	33	78	0	46	i	1.1
OC12CCCCC1C(c1ccc3c(c1)OCO3)N(Cc1ccccc1F)CC2 (stereo not drawn)	0.8	-12	85	-3	106	x	x
Oc1ccc(/C=N/NC(=S)NCC2CCCO2)cc1 (stereo not drawn)	-3.7	13	97	-6	104	i	0.89
Cc1cc(NC(=O)c2ccc(-c3ccc(F)c(Cl)c3)o2)no1	x	x	x	-4	100	i	0.9
COc1cc(NS(=O)(=O)c2ccc(Nc3nc(-c4ccccn4)cs3)cc2)nc(OC)n1	x	x	x	-3	101	i	0.98
C=CCN1/C(=C(\C#N)C2=NS(=O)(=O)c3ccccc32)N(C)c2ccccc21	-2.8	-46	118	0	100	i	1.1
CCCCC(=O)Nc1ccc(C(=O)NN2C(=O)c3ccccc3C2=O)cc1	-0.4	54	85	-6	99	i	1.2
O=C(NC(=S)Nc1ccccc1N1CCCC1)c1ccccc1[N+](=O)[O-]	-0.6	x	x	-10	107	i	0.98
Cc1c(NS(=O)(=O)N2CCCCC2)c(=O)n(-c2ccccc2)n1C	-1.5	-7	110	-1	104	i	1
SMILES	GALR2 agonist	INS promoter inh	INS promoter inh cell count	PKD1 kinase inh	RGS16-Gao	HSV replic up	HSV replic up primary fold
CC(C)Cn1c2nc3ccccc3nc2c2c(=O)n(CCN3CCOCC3)cnc21	1.6	x	x	-5	94	i	0.97
COc1ccc(C2C(=O)c3ccccc3C2=O)cc1	-0.7	0	76	-13	48	i	0.76
N#Cc1c(SCc2ccccc2)nc(N2CCOCC2)c2c1CCCC2	2.8	21	75	-5	74	i	0.99
COc1ccc(NC(=S)NCCCn2ccnc2)cc1	-2.1	19	122	-19	x	i	1
Cc1cc(NCCc2ccccc2F)n2ncnc2n1	x	47	101	-3	105	i	0.99
CCCCN(C(=O)/C=C/c1ccco1)c1c(N)n(CCC)c(=O)[nH]c1=O	x	x	x	-1	101	i	1.1
C=CCn1c(SCC(=C)C)nc2c1c(=O)[nH]c(=O)n2C	x	x	x	x	71	i	0.89
NNC(=O)C12CC3CC(C1)CC(n1ncnn1)(C3)C2	-1.9	-46	63	-4	103	i	0.8
COc1ccccc1N(O)C1CC(=O)N(c2ccc(F)cc2)C1=O (stereo not drawn)	-0.8	x	x	-2	98	i	0.85
CCOC(=O)c1nn(-c2ccccc2C)c2nc(CC(C)C)c(C#N)c(=O)n12	-1.5	45	169	0	114	i	1
Cc1cc(C(=O)NCc2cccs2)nn1C	x	x	x	x	81	i	0.91
CCSc1cc(N2CCOCC2)nc(-c2ccc(Cl)cc2)n1	-0.5	0	111	1	105	i	0.94
c1ccc(OCCSc2nc3ccccc3o2)cc1	-1.4	x	x	-12	103	i	1.1
O=C(NCc1ccccc1)N1CCOCC1	x	x	x	x	102	i	1
COc1ccccc1NS(=O)(=O)c1cc(NC(=S)NCC2CCCO2)ccc1C (stereo not drawn)	x	-39	145	-1	100	i	0.88
CC(C)/C(=N\NS(=O)(=O)c1ccc(Br)cc1)c1cccs1	x	17	42	6	100	i	1
Cc1cc2[nH]ncc2cc1NC(=S)NC(=O)c1ccccc1	-1.2	43	83	-9	102	i	0.89
COC(=O)c1ccccc1NC(=O)c1ccc(COc2ccc3c(c2)CCC3)cc1	0.3	13	126	8	107	i	0.89
Cc1cc(N2CCN(c3ccccc3)CC2)nc(-c2ccccc2O)n1	-2.0	7	110	3	-549	i	1
CC(O)c1nc2ccccc2n1CC(=O)Nc1ccc2c(c1)OCCO2 (stereo not drawn)	x	x	x	-1	96	i	0.98
COC(=O)c1nc2ccc(N3CCOCC3)cc2c(C)c1C(=O)OC	x	x	x	-2	103	i	0.96
C=C(C)CSc1nnc([C@H](CCSC)NC(=O)OC(C)(C)C)o1	-1.6	x	x	7	109	i	1
CCn1c(=NC(=O)CSC(C)=O)sc2cc(OC)ccc21	-2.2	x	x	-13	98	i	0.86
CSc1nc2oc3c(c2c2nncn12)CC(C)(C)SC3	-0.8	-73	113	1	82	i	1
O=C(COc1ccccc1)N1CCN(S(=O)(=O)Cc2ccccc2)CC1	-0.7	x	x	-3	103	i	0.79
SMILES	GALR2 agonist	INS promoter inh	INS promoter inh cell count	PKD1 kinase inh	RGS16-Gao	HSV replic up	HSV replic up primary fold
COc1ccc(NC(=O)CSc2nc(N)c3cc4c(nc3n2)CCCC4)cc1	0.4	x	x	6	146	i	1.2
CCOC(=O)N1CC=C2C(C#N)=C(N)C(C#N)(C#N)[C@H](c3ccc(OC(C)C)c(OCC)c3)[C@H]2C1	-1.8	24	89	-12	119	i	1.1
COc1cccc(OC)c1C(=O)N=c1sc2cc(S(C)(=O)=O)ccc2n1C	x	x	x	-5	101	i	0.94
COc1ccc(-c2nc(Cn3c(SCc4ccc(F)cc4)nc4ccncc43)c(C)o2)cc1OC	-1.1	x	x	-5	104	i	0.96
O=C1CC(C(=O)NC2CCCCC2)C(c2ccccc2)O1 (stereo not drawn)	0.5	-32	148	-3	101	i	0.94
CCOC(=O)C1CCN(C(=O)c2c(-c3c(F)cccc3Cl)noc2C)CC1	-1.9	24	79	-1	103	i	1
Cc1ccc(CN2C(=O)c3ccccc3C2C(=O)NCc2cccnc2)cc1 (stereo not drawn)	-0.8	x	x	-3	100	i	1.1
COc1ccc(C2=NOC(CN3C(=O)c4ccccc4S3(=O)=O)C2)cc1 (stereo not drawn)	-3.4	-24	106	4	106	i	0.89
O=C(O)COc1nsnc1N1CCOCC1	-1.0	x	x	-3	93	i	1.2
CC1(c2ccncc2)Nc2ccccc2-c2nc3ccccc3n21 (stereo not drawn)	-1.5	47	104	2	98	i	0.78
CCC(=O)NS(=O)(=O)c1cccnc1Nc1ccc(Cl)cc1	-1.0	33	102	-4	105	i	0.89
O=S(=O)(NCc1ccc2c(c1)OCO2)c1cnc[nH]1	-4.8	x	x	1	103	i	1
Cc1cccc(NC(=O)c2cc([N+](=O)[O-])ccc2N2CCCCC2)n1	x	x	x	-4	109	i	0.98
CCOC(=O)C1(Cc2cccc(F)c2)CCN(C(=O)c2cnccn2)CC1	x	26	87	-6	106	i	0.86
